# KCNQ2 block: KCNQ2 channel blockers in CHO-K1 cells – cell-based, FluxOR thallium flux, B-score, primary screen (AID 2156); O88943; 20 min; active compounds read low; only compounds with negative scores are shown here; some inactives read as strong as hits; B-score at 10 µM; actives 1.1% (n = 310,000);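 active means fluorescence ratio B-score at most minus 3 library SDs, with starting brightness B-score within 2 library SDs, cut at about -5.5 in these data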
# Target sequence (O88943 whole entry, looked up): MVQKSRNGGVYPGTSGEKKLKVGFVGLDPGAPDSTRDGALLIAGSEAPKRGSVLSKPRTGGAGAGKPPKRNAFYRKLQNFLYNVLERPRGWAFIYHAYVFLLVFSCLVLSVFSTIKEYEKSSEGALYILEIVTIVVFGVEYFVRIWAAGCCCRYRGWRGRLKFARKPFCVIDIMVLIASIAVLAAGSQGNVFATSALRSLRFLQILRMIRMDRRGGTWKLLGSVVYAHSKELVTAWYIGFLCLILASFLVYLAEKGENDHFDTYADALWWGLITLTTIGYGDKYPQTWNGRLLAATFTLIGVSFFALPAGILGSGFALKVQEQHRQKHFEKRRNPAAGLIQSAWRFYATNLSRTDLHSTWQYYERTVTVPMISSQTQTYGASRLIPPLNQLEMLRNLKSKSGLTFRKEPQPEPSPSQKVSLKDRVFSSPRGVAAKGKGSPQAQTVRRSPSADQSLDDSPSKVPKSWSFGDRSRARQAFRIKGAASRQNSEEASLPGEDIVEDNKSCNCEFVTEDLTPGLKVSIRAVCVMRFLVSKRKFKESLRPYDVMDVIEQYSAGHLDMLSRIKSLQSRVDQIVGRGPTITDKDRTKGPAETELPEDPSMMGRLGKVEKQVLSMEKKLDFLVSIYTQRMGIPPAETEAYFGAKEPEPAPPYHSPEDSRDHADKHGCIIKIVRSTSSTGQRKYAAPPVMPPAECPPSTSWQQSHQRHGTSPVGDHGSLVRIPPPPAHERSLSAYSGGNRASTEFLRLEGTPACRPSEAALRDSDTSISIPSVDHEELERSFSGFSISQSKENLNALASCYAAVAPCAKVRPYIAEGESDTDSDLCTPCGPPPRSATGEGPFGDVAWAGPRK
# KCNQ2 block baseline: second read-out of KCNQ2 block, no call of its own (marks repeat the call); B-score; measured here: initial fluorescence intensity artifact check;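 brightness before thallium and not channel activity; 0 = typical well and far values either way flag optical interference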
# An asterisk follows results filed as active; i = inactive. An excerpt; count on the stated rates, not on these rows.
# Below each compound – KCNQ2 block | KCNQ2 block baseline
COc1ccccc1CCC(=O)Nc1cc(S(=O)(=O)N2CCOCC2)ccc1N1CCCC1
  i | 0.03
O=C(NCCc1c[nH]c2ccccc12)/C(=C/c1cccnc1)NC(=O)c1cccs1
  i | 1.7
CCOC(=O)C1=C(COC(=O)COc2ccccc2C#N)NC(=O)NC1C (stereo unspecified)
  i | -0.08
O=C(CSc1ccc2nnc(CCNC(=O)c3ccccc3)n2n1)NC1CCCC1
  i | -0.98
C/C(CC(=O)NCc1ccco1)=N\NC(=O)CC#N
  i | -1.6
Cc1nc(-c2ccccc2)nc(-c2ccccc2)n1
  i | -0.06
c1ccc(CCN=C2CCCc3c2[nH]c2ccccc32)cc1
  i | -2.8
COc1cccc(OC)c1OCCCOc1ccc(C)cc1Br
  i | -0.71
COc1cccc(C(=O)Nc2ccc(NC(=O)Cc3ccccc3)cc2)c1
  i | 1.4
CCOc1ccc(C(=O)NCC(=O)OCCCOC(=O)CNC(=O)c2ccc(OCC)cc2)cc1
  i | 1.7
CN1CCN(c2ccc(CNC(=O)c3ccc4c(c3)OCCO4)cc2)CC1
  i | -0.03
Cc1cc(C(=O)NCCC(c2ccccc2)c2ccccc2)c(C)o1
  i | 0.39
O=C(NC(=S)NCCN1CCOCC1)c1ccccc1Cl
  i | 0.02
NC(=O)NOCc1ccccc1F
  i | -0.37
C/C(=N\N=C1\NC(=O)CC(C(=O)O)S1)c1cccs1 (stereo unspecified)
  i | 1.8
COc1ccc(C[C@H]2CN3C(=NC[C@@H]3Cc3ccccc3)N2C[C@H](C)NC(=O)CCC2CCCCC2)cc1
  i | -0.24
CC(C)c1ccc(C(=O)N(c2ccccn2)C(C)c2ccco2)cc1 (stereo unspecified)
  i | 2.2
Cc1cccc2c(N)c3c(nc12)N(C)CC3
  i | -2.3
CCN(CC)CCCNC1CCS(=O)(=O)C1 (stereo unspecified)
  -6.7* | -1.8*
Cc1ccc(CNC(=O)Cn2cc(C(F)(F)F)ccc2=O)cc1
  i | 2.9
CCn1c(CNc2ccc(F)cc2)nnc1SCC(=O)OC1CCCCC1
  i | -0.13
CCCCOc1cccc(C(=O)N(Cc2cccs2)C2CCS(=O)(=O)C2)c1 (stereo unspecified)
  i | -2.1
CCCN1C(=O)C(Cc2nc3ccccc3c(=O)n2-c2ccccc2)c2cc(C)ccc21 (stereo unspecified)
  i | 0.72
CCOC(=O)C1=C(c2ccccc2)NC(=O)NC1c1ccc(O)c(OCC)c1 (stereo unspecified)
  i | 0.68
O=C1CCCN2N=C(SCC(=O)Nc3ccc(F)cc3F)SC2=N1
  i | -1.4
COc1ccc(/C=N/NC(=S)NC2CCS(=O)(=O)C2)cc1OC (stereo unspecified)
  i | -0.58
CCOC(=O)N1CCC(NC(=O)Cn2ncc3c4ccccc4n(C)c3c2=O)CC1
  i | 0.62
CCC1CCCCN1C(=O)Cn1c(=O)oc2ccccc21 (stereo unspecified)
  i | -2.5
Cc1cc(N/N=C/c2ccccc2Br)nc2ccccc12
  i | 1.5
Cc1ccc(C(=O)CN(Cc2ccccc2)C2=NCCS2)cc1
  i | -0.2
O=C(COC(=O)c1ccco1)Nc1ccc2c(c1)OCO2
  i | 0.04
COc1ccc(N2C(=O)CCC2(C#N)c2ccc(OC)cc2)cc1 (stereo unspecified)
  i | -1.7
COc1ccc(NC(=O)c2c(C)nn(Cc3ccccc3)c2Cl)cc1S(=O)(=O)N1CCOCC1
  i | 0.35
CCOCCCn1c(SCC(=O)N(C)C2CCS(=O)(=O)C2)nc2ccccc2c1=O (stereo unspecified)
  i | 0.49
COC(=O)c1c(NC(=O)CCc2ccc(C)o2)sc(C)c1C
  -5.9* | -1.6*
COc1cccc(-c2nc(CS(=O)CC(=O)NC(C)CCc3ccccc3)c(C)o2)c1 (stereo unspecified)
  i | 1.3
CCOCC(=O)N1CCc2ccccc21
  i | -0.88
CCCC(=O)C1=C(O)C(C(=O)OC)C(C)(C)CC1=Nc1ccc(C)cc1 (stereo unspecified)
  i | -0.02
CC1CCCN(C(=O)Cc2cn(Cc3cccc(Cl)c3)c3ccccc23)C1 (stereo unspecified)
  i | 0.01
COc1ccc(OC)c(-c2cc(-c3cccnc3)nc(N)c2C#N)c1
  i | 1.2
Cc1cc(N2CCN(c3cccc(C)c3C)CC2)nc(-c2ccccc2)n1
  i | -1.5
O=C(O)c1ccccc1C(=O)Nc1cccc([N+](=O)[O-])c1
  i | -0.35
CCOC(=O)CSc1c(-c2ccc(Cl)cc2)[nH]c2ccccc12
  i | -0.47
CCOC(=O)CC1=C(C#N)C(c2cccnc2)C(C(=O)OCC)=C(N)O1 (stereo unspecified)
  i | 1.1
Cc1ccc(/C=C/C(=O)N2CCC(Cc3ccccc3)CC2)cc1
  i | 0.56
CCc1ccc(CN(C(=O)c2cc3ccccc3oc2=O)C2CCS(=O)(=O)C2)cc1 (stereo unspecified)
  i | 0.67
CC1CCCN(CCCNC(=O)c2ccc3c(c2)N(Cc2ccc(F)cc2)C(=O)c2ccccc2S3=O)C1 (stereo unspecified)
  i | 0.02
Cc1cc(C)c(C(=O)NC2CCCc3c2cnn3-c2cccc(C)c2C)o1 (stereo unspecified)
  -6.6* | 1.1*
COc1ccc(C(=O)NC(=S)NNC(=O)c2cccnc2)cc1
  i | 2.6
CCOC(=O)N1CCN(C(=O)Nc2ccccc2Cl)CC1
  i | 2.6
Cn1c(=O)c2c(nc(NCC3CCCC(CN)C3)n2Cc2ccc(Cl)cc2Cl)n(C)c1=O (stereo unspecified)
  i | 1.4
Cc1ccc(-n2c(SCC(=O)NCCN3C(=O)CSC3=O)nnc2-c2ccccc2)cc1C
  i | 1.4
O=C(Nc1ccc(-c2cscn2)cc1)C1CCCN(Cc2ccc(CO)o2)C1 (stereo unspecified)
  i | -0.45
O=C(CSc1nnc(CNc2ccc(F)cc2)n1Cc1ccco1)NC1CC1
  i | -0.9
NS(=O)(=O)c1ccc(Nc2nc(-c3ccc(O)cc3O)cs2)cc1
  i | 0.72
CCOC(=O)C1=C(N)N2C(=O)C(C)SC2=C(C(=O)OCC)C1c1ccc(O)cc1 (stereo unspecified)
  i | -0.98
COc1ccc(NC(=O)NC2CCCc3ccccc32)cc1 (stereo unspecified)
  i | 0.05
CCOc1ccc(N2C(=O)c3cccnc3C2Nc2ccc(F)cc2)cc1 (stereo unspecified)
  i | 0.32
CCc1c(C(=O)Nc2cc(C)ccc2OC)[nH]c(C)c1C(C)=O
  i | -0.12
O=C(Cc1ccccc1)N/N=C/c1cc(Br)cs1
  i | 1

# The list goes on.
# Below each compound – KCNQ2 block | KCNQ2 block baseline
Cc1ccc(C(=O)N/N=C/c2ccc(-c3cccc(Cl)c3)o2)cn1
  i | 1.5
O=C(NCCCn1ccnc1)c1cc(-c2ccc(Cl)cc2)nc2ccccc12
  i | 3.1
CCCCOc1ccc(C(=O)NCCOc2cccc(OC)c2)cc1
  i | 1.1
CC(C)(C)NC(=O)C(c1ccc(F)cc1)N(Cc1ccco1)C(=O)CCC(=O)Nc1ccccn1 (stereo unspecified)
  i | -0.03
COC(=O)CCC(=O)Nc1cccc2c(NC(=O)CCC(=O)OC)cccc12
  i | -0.03
CCOC(=O)c1c(NC(=O)COc2ccc3ccc(=O)oc3c2)sc(C(=O)N(C)C)c1C
  i | 0.41
Cc1nn(Cc2ccccc2Cl)c(C)c1NC(=O)CCCn1nc([N+](=O)[O-])c(Cl)c1C
  i | -3.3
COc1ccc(-c2csc(N)n2)cc1
  i | 1.3
COc1cc(CNCc2cccs2)ccc1OCC(N)=O
  i | -0.08
CCOc1ccc(C2CC(c3c(O)c4ccccc4oc3=O)=NN2c2ccccc2)cc1OC (stereo unspecified)
  i | 4.5
Cc1cccc(-n2cnc3cc(C(=O)N4CCc5ccccc54)ccc32)c1
  i | 0.99
CC(C)(C)c1ccc(C(=O)NCc2nnc(SCC(=O)NCC3CCCO3)o2)cc1 (stereo unspecified)
  i | 1.5
CCOC(=O)C1=C(C)N=C2SC(C)C(=O)N2C1/C=C/c1ccccc1OC (stereo unspecified)
  i | -0.31
Cc1cc(NC(=O)CSc2c[nH]c3ccccc23)no1
  i | 0.07
COc1cccc(/C=C/C(=O)OCC(=O)N2CCCc3ccccc32)c1
  i | 0.36
CN(C(=O)C1CCC(=O)N(Cc2ccccc2F)C1)C1CCOCC1 (stereo unspecified)
  i | 0.81
Oc1ccc(C[C@@H]2CNCCN2CCC23CC4CC(CC(C4)C2)C3)cc1
  i | 2.7
CCn1ncc([N+](=O)[O-])c1C(=O)Nc1c(C)nn(Cc2ccc(F)cc2)c1C
  i | -0.8
Cc1ccc(S(=O)(=O)N2CCCC2C(=O)NC2CCCCC2)cc1 (stereo unspecified)
  i | -0.09
Cc1cc(C)n(S(=O)(=O)c2cc(C)c(C)cc2C)n1
  i | -0.08
CCOC(=O)CC(NS(=O)(=O)c1ccc(OC)c(C)c1)c1cccc([N+](=O)[O-])c1 (stereo unspecified)
  i | -1.4
Cc1csc(SCc2nc3scc(-c4ccccc4)c3c(=O)[nH]2)n1
  i | -0.86
CCCCn1cnc2c(c(-c3ccccc3)c(-c3ccccc3)n2Cc2ccco2)c1=N
  -7.6* | 0.37*
COc1ccccc1OCCn1ccnc1
  i | 1.5
O=[N+]([O-])c1cc(/C=N/n2c(-c3cccnc3)n[nH]c2=S)ccc1Cl
  i | 1.8
Cc1ccc2sc(N(CCCN(C)C)C(=O)c3ccc(S(=O)(=O)N4CCc5ccccc5C4)cc3)nc2c1C
  i | 2.9
CCCC(C(=O)O)n1c(O)c(C=C2N=c3ccccc3=N2)sc1=S (stereo unspecified)
  i | 0.71
CCOC(=O)c1cc(S(=O)(=O)NCCc2ccccc2)cn1C
  i | 1
Cc1cc(C)c(S(=O)(=O)NC2CC(C)(C)NC(C)(C)C2)cc1Br
  i | 0.4
O=C(CC(=O)c1ccccc1)Nc1cc(C(F)(F)F)ccc1Cl
  i | -0.04
Nc1cc(=O)[nH]n1C1CCCC1
  i | -0.08
Cc1nn(-c2ccccc2)c2c1C(=O)N(Cc1ccccc1)C(=O)C(C)(C)C2
  i | -1.2
CCC1=Nc2cc(C(=O)N3CCCCC3)ccc2Sc2ccc(C)cc21
  -5.9* | 0.27*
Cc1ccc(NC(=O)CSc2nc3ccccc3nc2N2CCCC2)cc1
  i | -0.82
CCNC(=O)C(C)Sc1ccc(Cl)cc1 (stereo unspecified)
  i | -0.06
N=C1/C(=C\c2ccc(OC(=O)c3ccccc3)cc2)C(=O)N=C2SC(N3CCOCC3)=NN12
  i | -0.84
COc1ccc(NC(=O)c2cccc(N3C(=O)C4C5C=CC(C5)C4C3=O)c2)c(OC)c1 (stereo unspecified)
  i | 1.6
O=C(CCN1C(=O)S/C(=C\c2cccs2)C1=O)NC1=NCCS1
  i | 0.22
CCN1CCN(CCCNC(=O)c2csc3c2CCCCC3)CC1
  i | -0.48
C=CCNC(=S)Nc1cccc(N)c1
  i | 0.92

# Grouped by structure, those above with bromine (4)
# Below each compound – KCNQ2 block | KCNQ2 block baseline
COc1cccc(OC)c1OCCCOc1ccc(C)cc1Br
  i | -0.71
Cc1cc(N/N=C/c2ccccc2Br)nc2ccccc12
  i | 1.5
O=C(Cc1ccccc1)N/N=C/c1cc(Br)cs1
  i | 1
Cc1cc(C)c(S(=O)(=O)NC2CC(C)(C)NC(C)(C)C2)cc1Br
  i | 0.4

# A different layout for part of the listing above.
> CCn1ncc([N+](=O)[O-])c1C(=O)Nc1c(C)nn(Cc2ccc(F)cc2)c1C
  KCNQ2 block = i | KCNQ2 block baseline = -0.8

> Cc1ccc(S(=O)(=O)N2CCCC2C(=O)NC2CCCCC2)cc1 (stereo unspecified)
  KCNQ2 block = i | KCNQ2 block baseline = -0.09

> Cc1cc(C)n(S(=O)(=O)c2cc(C)c(C)cc2C)n1
  KCNQ2 block = i | KCNQ2 block baseline = -0.08

> CCOC(=O)CC(NS(=O)(=O)c1ccc(OC)c(C)c1)c1cccc([N+](=O)[O-])c1 (stereo unspecified)
  KCNQ2 block = i | KCNQ2 block baseline = -1.4

# Other entries follow:
# Below each compound – KCNQ2 block | KCNQ2 block baseline
CC(C)c1onc(C(=O)NCc2cccs2)c1[N+](=O)[O-]
  i | 2.3
CC(=O)c1ccc(OCc2cc(C(=O)N(C)Cc3ncc(C)[nH]3)no2)cc1
  i | -0.53
O=C(CSc1nnc(-c2cccs2)n1-c1ccccc1)N1CCCc2ccccc21
  i | -1.9
Cc1ccc(C(=O)O)cc1NC(=S)NC(=O)c1ccc(-c2ccccc2)cc1
  i | 0.65
COc1ccc(-c2nc(N3CCN(C)CC3)sc2-c2ccc(OC)cc2)cc1
  i | 0.34
CC1=C(C#N)C(NC(=O)C2CCCCC2)(C(F)(F)F)C(=O)N1 (stereo unspecified)
  i | 0.57
CCc1c(C)c(C#N)c2nc3ccccc3n2c1NCc1ccco1
  i | 0.16
O=C(/C=C/c1c(Cl)cccc1Cl)NCc1ccco1
  i | -0.59
O=C(COC(=O)c1ccc[nH]c1=O)NCCc1ccc(F)cc1
  i | 0.79
O=C(N/N=C/c1ccncc1)c1cccs1
  i | 1.4
O=C(CCCCCCCC(=O)c1ccccc1)c1ccccc1
  -6.2* | -0.75*
Cc1c(NC(=O)CN2C(=O)NC(C)(c3ccc(OC(F)F)cc3)C2=O)c(=O)n(-c2ccccc2)n1C (stereo unspecified)
  i | -1.7
Cc1ccc(NC(=O)COC(=O)C(CC(C)C)N2C(=O)C3CC=CCC3C2=O)c(C)c1 (stereo unspecified)
  i | 0.51
Nc1nc(=S)c2ncn(C3OC(CO)C(O)C3O)c2[nH]1 (stereo unspecified)
  i | 0.8
COc1cccc(/C=N/N2CCOCC2)c1O
  i | -1.3
C=CCO/N=C(\C)c1c(O)c(C)c(-c2ccccc2)n(-c2ccccc2)c1=O
  i | 0.69
COc1ccc(CCNC(=O)CCSc2nc(-c3ccco3)cc(C(F)(F)F)n2)cc1OC
  i | -1.3

# Screening results as filed in PubChem.
